Compound activity as filed in PubChem BioAssay.
AmpC inh no det: AmpC beta-lactamase inhibition, detergent-free assay; AID 585; AmpC nitrocefin hydrolysis, absorbance 480 nm, no detergent; potencies from a single point are estimates; Potency, µM (titrated, usually from 28.7 µM), for the others: at the top dose activity change, negative = inhibition; 1.8% of 71,000 active; active = falling curve, for most hits resting on a single point; inconclusive = weak or doubtful change; inactive = flat or rising curve; further: % of control where 0% means no effect; about half of the hits show no inhibition at the top dose; a quarter of the inactives give rising signals
Target sequence (P00811 whole entry, looked up): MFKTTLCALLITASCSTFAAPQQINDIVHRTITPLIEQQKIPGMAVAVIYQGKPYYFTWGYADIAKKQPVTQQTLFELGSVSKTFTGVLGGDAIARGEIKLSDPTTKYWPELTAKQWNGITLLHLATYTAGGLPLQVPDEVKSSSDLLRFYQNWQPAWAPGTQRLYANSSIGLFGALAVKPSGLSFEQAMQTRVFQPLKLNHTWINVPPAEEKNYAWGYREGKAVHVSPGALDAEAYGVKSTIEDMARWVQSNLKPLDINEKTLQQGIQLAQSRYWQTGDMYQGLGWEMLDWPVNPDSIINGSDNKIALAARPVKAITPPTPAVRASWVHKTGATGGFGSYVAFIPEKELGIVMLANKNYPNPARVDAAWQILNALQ
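AmpC in 20 mM phosphate buffer pH 7.0 was preincubated 15 min at room temperature with compounds. Nitrocefin (800 uM stock) was then added and hydrolysis followed at 480 nm every 20 s for 4 min.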
An asterisk follows results filed as active; ? = inconclusive; [ ] = remark or other dose. Potency means the concentration at half of the fitted maximal effect. These rows are one share of the data (hit frequency here may not be typical).

SMILES	AmpC inh no det
Cn1c(SCC(=O)NCc2ccc3c(c2)OCO3)nnc1-c1cc2ccccc2cc1O	-16.3%
COc1ccc2[nH]c(C)c(CN3CCCCC3)c(=O)c2c1	-12.4%
O=C(Oc1ccc(Br)cc1)C1CC(=O)N(c2ccc(F)cc2)C1 (stereo unspecified)	23.1%
CCOc1ccc(CC(=O)Nc2c(C(N)=O)oc3ccc(Br)cc23)cc1OCC	4.5%
Cc1cccc(NC(=O)CN(C)S(=O)(=O)c2cnc[nH]2)c1	4.4%
CCS(=O)(=O)CCSc1nc(C)cc(C)n1	-1.6%
COc1ccc(C(=O)CSc2nnc(-c3cc4ccccc4cc3O)n2Cc2ccco2)cc1	10µM*
CCCCCCCCN[C@@H](C)[C@H](O)c1ccc(SC(C)C)cc1	-6.5%[12.8 µM]
N#Cc1nc(Cc2ccccc2)oc1N1CCC(Cc2ccccc2)CC1	-10.4%
CCOC(=O)C1=C(CC)Nc2ccccc2N=C1NC(=O)Nc1ccccc1OC	11.2%
COc1ccccc1-c1nnc2n1N=C(C)CS2	-5.3%
CC(NC(=O)CSc1ncccn1)c1ccccc1 (stereo unspecified)	11.1%
Cc1cnc(CNc2cc(-c3c(C)noc3C)ncn2)cn1	13.8%
CCC(C(=O)NCc1ccc(F)cc1)N(Cc1ccco1)C(=O)c1snc(C(N)=O)c1N (stereo unspecified)	-1.3%
Cc1ccc(C(=O)N2c3ccc(F)cc3CCC2C)o1 (stereo unspecified)	24.6%
O=S(=O)(NCC1CCCO1)c1ccc2ccccc2c1 (stereo unspecified)	4.9%
CN1CCN(Cc2nc3ccccc3n2C)CC1	-4.9%
COc1ccc(CCNC(=O)CC2Oc3ccc(Cl)cc3NC2=O)cc1OC (stereo unspecified)	3.4%
CC(=O)C1=C(C)NC(C)=C(C(C)=O)C1c1cccs1	-9.0%
CCN(C(=O)c1cn(C)c(=O)c2cc(OC)c(OC)cc12)c1cc(OC)ccc1OC	56.3%
CN1CCN(S(=O)(=O)c2ccc(NC(=O)Nc3cccc(Cl)c3)cc2)CC1	12.7%
O=C(NCCc1csc(-c2cccnc2)n1)c1ccc(Br)o1	10.2%
Cc1ccc(-c2ccc(C(=O)O)[nH]2)cc1	-8.6%
COCCN(CCOC)c1ncnc2c1cnn2-c1ccc(Cl)cc1	86.9%
COC(=O)[C@@H](NC(=O)NCc1ccco1)C(C)C	-4.5%

Next structures:
SMILES	AmpC inh no det
CC(C)Oc1ccc(CNCC2(O)CCOC(C)(C)C2)cc1 (stereo unspecified)	-8.6%
O=C(Cn1nnc(-c2ccccc2NC(=O)c2ccco2)n1)Nc1ccccc1	-23.7%
CCN1C(=O)c2ccccc2Sc2ccc(C(=O)N3CCC4(CC3)OCCO4)cc21	75.9%
COc1ccc(C(=O)Nc2cc(=O)n(C)c(=O)n2C)cc1OC	-6.6%
O=C(NCc1ccco1)C1CCN(c2nc3ccccc3n2Cc2ccc(F)cc2)CC1	138.3%
CCOC(=O)C1=C(C)NC(=O)NC1c1ccc(C)o1 (stereo unspecified)	-5.6%
Cc1ccc(S(=O)(=O)N2CC(=O)Nc3ccccc32)cc1C	2.2%
CCc1ccccc1NC1c2ccccc2C(=O)N1Cc1ccco1 (stereo unspecified)	30.4%
COc1ncc2nc(-c3ccc(F)cc3)c(=O)n(C3CC3)c2n1	-2.2%
COc1ccc2ncn(-c3ccccc3)c2c1	-5.6%
O=C1CSC(c2ccccc2F)N1CCN1CCCCC1 (stereo unspecified)	3.6%
COc1cccc(C(C(=O)NCc2ccco2)N(C(=O)Cn2nnc3ccccc32)C2CC2)c1OC (stereo unspecified)	18.2%
Cc1cnc(CNc2ncncc2-c2ccccc2CN(C)C)cn1	5.3%
Cc1nc(N)sc1-c1csc(Nc2ccc(Cl)cn2)n1	2.2%
Cc1ccc(-n2c(=O)c3sccc3n(CC(=O)N3CCCC3)c2=O)cc1	-7.8%
COc1ccc(CCNC(=O)C2CCN(S(=O)(=O)c3cccc4nonc34)CC2)cc1OC	13.4%
CCc1nc(Nc2ccc3nccnc3c2)c2oc3ccccc3c2n1	29.9%
Cc1ccc(Cn2ccc(NC(=O)C3C4CCC(C4)C3C(=O)O)n2)cc1 (stereo unspecified)	9.6%
COCCn1c(=O)c(-c2ccc(OC)cc2)nc2cnc(N3CCN(C)CC3)nc21	104.1%
O=C(NC1CCCCCC1)C1CCN(c2nc3ccccc3o2)CC1	60.3%
O=c1c(-c2ccc(Cl)cc2)coc2c(CN3CCOCC3)c(O)ccc12	-5.1%
c1nc(N2CCCC2)c2[nH]cnc2n1	1.1%
CCNC(=O)C1(c2ccccc2)CCCC1	2.6%
CCOC(=O)CN1C(=O)NC2NC(=O)NC21 (stereo unspecified)	-6.2%
O=C(CSc1nnc(-c2ccccc2)o1)N1CCN(c2ccccc2)CC1	12.6µM*[single pt active]

Further results follow.
SMILES	AmpC inh no det
Cn1cc(S(=O)(=O)N2CCN(Cc3ccccc3)CC2)c(=O)n(C)c1=O	50.8%
COC(=O)C1(C)C=CC2(CCCCC2)N1C(C)=O (stereo unspecified)	6.4%
O=C1NCCCC1C(=O)NCCN1C(=O)CCC1=O (stereo unspecified)	-0.4%
Nn1c(SCC(=O)NC2CCCCC2)nnc1C1CC1	-1.5%
COc1ccccc1C(O)P(=O)(OC(C)C)c1ccc(N(C)C)cc1 (stereo unspecified)	33.8%
COc1ccc(OC)c(NC(=O)Cn2cnc3c(cnn3-c3ccccc3)c2=O)c1	84.5%
C[N+]1([O-])[C@H]2CC[C@H]1CC(OC(=O)[C@@H](CO)c1ccccc1)C2 (stereo partly specified)	-2.5%[5.75 µM]
N=P(N1CCOCC1)(N1CCOCC1)C12CC3CC(CC(C3)C1)C2	2.5%
Cc1ccc(S(=O)(=O)N2CC(O)CC2C(=O)Nc2ccc3c(c2)CCC3)cc1 (stereo unspecified)	55.1%
Nc1nc(SCCc2ccccc2)c2[nH]cnc2n1	-9.7%[5.75 µM]
COc1ccc(NS(=O)(=O)c2ccc(NC(=O)C3CCCO3)cc2)cc1 (stereo unspecified)	-15.2%
C=CCN1C(=O)CSC1=Nc1cccc(O)c1	-11.4%
COc1ccccc1Oc1ccc(S(=O)(=O)N2CCOCC2)cc1S(=O)(=O)N1CCOCC1	131.2%
Cc1nc2sc(C(c3ccc(C(C)C)cc3)N3CCN(CCO)CC3)c(O)n2n1 (stereo unspecified)	1.3%
COc1cccc(C2=CC(c3cccc(OC)c3OC(F)F)n3nnnc3N2)c1 (stereo unspecified)	-11.6%
COC(=O)[C@@]1(Cc2ccc(F)cc2)[C@H]2c3cc(C(=O)N4CCCC4)n(CCCNc4ncc(C(F)(F)F)cc4Cl)c3C[C@H]2CN1C(=O)c1ccccc1	90.3%
CCOC(=O)C1C(=O)C=C(C)C(C(=O)OCC)C1c1ccc(OC)cc1 (stereo unspecified)	42.6%
COC(=O)c1oc2ccc(OC)cc2c1N	-9.7%
COc1ccc(OC)c2sc(NC(=O)C(C)C)nc12	11.7%
CS(=O)(=O)Nc1cccc(-c2nc(Nc3ccc(F)cc3)c3ccccc3n2)c1	5.2%
O=c1[nH]c2cc(Cl)c(Cl)cc2[nH]c1=O	-15.3%
COC(=O)CCNc1ccc2c(c1)OCCO2	44.8%
CC(CNCc1ccc2c(c1)OCO2)NCc1ccc2c(c1)OCO2 (stereo unspecified)	12.4%
COc1ccc(-c2nnc(SCC(=O)NCc3ccco3)n2C)cc1	26.4%
COc1ccc(C(=O)CSc2nnc(CNc3ccc(C)cc3C)o2)cc1	-8.4%

Next part; the last two above are carried over.
SMILES	AmpC inh no det
COc1ccc(-c2nnc(SCC(=O)NCc3ccco3)n2C)cc1	26.4%
COc1ccc(C(=O)CSc2nnc(CNc3ccc(C)cc3C)o2)cc1	-8.4%
N#Cc1c(NC(=O)CSc2nc(-c3ccco3)cc(C(F)(F)F)n2)sc2c1CCCC2	-12.8%
O=C(C[C@@H](c1ccccc1)N1CCCCC1)c1ccccc1	5.5%[5.75 µM]
c1ccc2c(c1)nc(NCC1CCCO1)c1nnnn12 (stereo unspecified)	-6.1%
COc1cccc(Cn2c(=O)c(-c3cccc(Cl)c3)nc3cncnc32)c1	21.2%
O=S1(=O)C=C(Sc2nc3ccccc3s2)c2ccccc21	?
CC(=O)Oc1ccc(NC(=O)CSc2ccccc2)cc1	-6.0%
CC(C)CCn1c(Br)nc2c1c(=O)n(CC(N)=O)c(=O)n2C	3.8%
N[C@@H](Cc1c[nH]c2ccccc12)c1nnc(SCc2ccc(F)cc2)o1	80.4%
Cn1cnnc1SCNC(=O)C(F)(F)F	-0.7%
COc1ccc(-n2c(O)c(C(C)=NCCN3CCNCC3)c(=O)[nH]c2=O)cc1	-8.7%
CC(=O)c1ccc(OCCCC(=O)n2nnc3ccccc32)cc1	-5.0%
CC1Cc2ccccc2N1S(=O)(=O)c1cccc2nsnc12 (stereo unspecified)	-7.9%
NC(=O)C1(N2CCCCC2)CCN(Cc2nc3ccccc3c(=O)[nH]2)CC1	-4.3%
Cc1ccc2c(CC(=O)NCc3ccco3)coc2c1C	-7.4%
CN(C)c1ncc2nc(-c3ccc(F)cc3)c(=O)n(-c3ccccc3)c2n1	-0.5%
COC(=O)\C(C(C)=O)=C(/C=C/C=C/N(C)C)N(C)C	17.5%
Cc1ccc(Nc2nc(CSc3nnc(-c4cccs4)o3)cs2)cc1	-7.1%
COc1cccc(-c2nn3c(-c4cccc(C)c4)nnc3s2)c1	128.5%
Cn1c(=O)c2c(SCC(=O)NCc3ccco3)nc(CC(C)(C)C)nc2n(C)c1=O	55.0%
Cc1cc(-c2ccccc2)c(C#N)c(N)n1	-5.4%
CC(=O)c1cccc(NC(=O)Nc2cnn(Cc3ccc(F)cc3)c2)c1	-10.3%
COc1ccc(OC)c(C(c2nnnn2Cc2ccccc2)N2CCN(C)CC2)c1 (stereo unspecified)	12.0%
O=C(Oc1ccccc1)N1CCC2(CCCN(c3ccccc3)C2)CC1	30.0%
COc1ccc(CNC(=O)c2cc(-c3ccc(OC)c(OC)c3)on2)cc1	25.4%
O=C(c1ccco1)N1CCC(c2ccccc2)C1 (stereo unspecified)	5.1%

Ordered by SMILES length (lowest first): part of the list above
SMILES	AmpC inh no det
O=C(c1ccco1)N1CCC(c2ccccc2)C1 (stereo unspecified)	5.1%
O=c1[nH]c2cc(Cl)c(Cl)cc2[nH]c1=O	-15.3%
CC(=O)C1=C(C)NC(C)=C(C(C)=O)C1c1cccs1	-9.0%
CCc1nc(Nc2ccc3nccnc3c2)c2oc3ccccc3c2n1	29.9%
CCCCCCCCN[C@@H](C)[C@H](O)c1ccc(SC(C)C)cc1	-6.5%[12.8 µM]
N[C@@H](Cc1c[nH]c2ccccc12)c1nnc(SCc2ccc(F)cc2)o1	80.4%

Later entries
SMILES	AmpC inh no det
Cn1c(SCC(=O)NCc2ccco2)nnc1-c1cccs1	7.4%
COC(=O)c1ccc(/C=N/n2cnnc2)cc1	-4.7%
CCCC(=O)Nc1ccc2oc(-c3cccnc3)nc2c1	13.0%
CN(C)C(=O)c1ccc(-c2nccc(-n3ccnc3)n2)cc1	17.6%
O=C(CCCn1c(=O)[nH]c2ccsc2c1=O)N1CCN(c2ccccn2)CC1	-19.3%
CCOc1ccccc1NC(=O)CCn1c(=O)oc2ccccc21	2.6%
CCOC(=O)N1CCN(C(=O)c2cnn3c(C(F)F)cc(-c4ccc(C)cc4)nc23)CC1	102.6%
Oc1cccc2cccnc12	10.0%[5.75 µM]
CCc1ccccc1N(CC(=O)NCCSCc1ccco1)S(C)(=O)=O	47.6%
Cc1cc2c(cc1C)NC(c1c(C)n(C)n(-c3ccccc3)c1=O)C1=C(CC(C)(C)CC1=O)N2 (stereo unspecified)	23.0%
O=C(OCn1nnc2ccccc2c1=O)C1CCCCC1	2.3%
N#CCCN1CCN(C(=S)c2ccc(-c3cccc(Cl)c3)o2)CC1	90.0%
N#Cc1cccc2cnccc12	-8.9%
O=C(C1CCCN(S(=O)(=O)Cc2ccccc2)C1)N1CCCCC1 (stereo unspecified)	6.8%
O=C(NCc1n[nH]c(=S)n1-c1ccccc1)c1ccc(S(=O)(=O)N2CCOCC2)cc1	1.0%
Cn1c2ccccc2c2ncn(CCN3CCOCC3)c(=O)c21	27.4%
O=C(Cn1cnc2ccccc2c1=O)OCCCCN1C(=O)c2ccccc2C1=O	30.5%
Cc1cc(C(=O)N2CCN(C/C=C/c3ccccc3)CC2)no1	39.6%
O=C(NCc1ccncc1)c1ccc(Br)cc1	8.8%
C[C@@H]1O[C@H](C[N+](C)(C)C)C[C@H]1O	-7.8%
O=c1n(Cc2ccc(Cl)cc2)c2sc3c(c2c2ncnn12)CCCC3	47.2%
O=S(=O)(c1ccc2nc(Cc3cccc(C(F)(F)F)c3)[nH]c2c1)N1CCOCC1	1.3%
NC(Cc1cccc2nsnc12)C(=O)O (stereo unspecified)	-4.6%
O=C(Nc1cccc(C(F)(F)F)c1)c1ccco1	96.1%
Cc1cc(C)n(-c2ncnc3sc4c(c23)CC(C)CC4)n1 (stereo unspecified)	6.6%

(more compounds)
SMILES	AmpC inh no det
CN(C)P1(N(C)C)=NC(C(F)(F)F)=NC(C(F)(F)F)=N1	1.1%
COc1ccc(-c2ccc(S(=O)(=O)N3CCOCC3)cc2)cc1	-10.8%
Nc1c(C(=O)NC2CCCCC2)c2nc3ccccc3nc2n1/N=C/c1ccco1	41.1%
CC1(C)CC(=O)C2(CC3=C(CC(C)(C)CC3=O)O2)C(=O)C1	12.5%
CCNc1ncc2nc(-c3ccccc3)c(=O)n(Cc3cccs3)c2n1	8.7%
O=C(c1ccco1)N1CCN(C(=O)c2cccn3c(=O)c4c5c(sc4nc23)CCCC5)CC1	130.4%
Cc1ccccc1C(=O)Nc1cccc(NC(=O)Cn2cnc3c(=O)n(C)c(=O)n(C)c32)c1	29.7%

Three records drawn at random from the list so far, as already listed:
SMILES	AmpC inh no det
COc1ccc(-c2ccc(S(=O)(=O)N3CCOCC3)cc2)cc1	-10.8%
CCNc1ncc2nc(-c3ccccc3)c(=O)n(Cc3cccs3)c2n1	8.7%
Nc1c(C(=O)NC2CCCCC2)c2nc3ccccc3nc2n1/N=C/c1ccco1	41.1%
